Mtb growth – Mycobacterium tuberculosis H37Rv growth inhibition, putative kinase inhibitor library, confirmatory dose response (AID 2842) | M. tuberculosis H37Rv growth inhibition; higher % means a stronger effect; some inactives read as strong as hits | one-dose inhibition, % at 10 µg/mL; IC90 in µg/mL for titrated hits | 24,000 tested, 5.2% active;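 active = confirmed in a dose series; about a fifth of its hits are not listed in these tables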;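 also: bacteria incubated one week before Alamar blue readout; 0% = bacteria only wells and 100% = bacteria with high antibiotic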
Starred values were filed as active, the others as inactive.

SMILES	Mtb growth
CC(=O)N1CCc2c(sc(NC(=O)c3ccc4c(c3)OCCO4)c2C(N)=O)C1	5%
O=C(Cc1nc2ccccc2s1)c1ccc(O)cc1O	-9%
C=CCN1C(=O)/C(=C/c2ccco2)S/C1=N/c1nccs1	11%
Cc1ccc(C)c(NC(=O)CSc2nnc(-c3cccs3)n2N)c1	5%
O=C(Nc1nnc(-c2ccc(F)cc2)o1)c1cccs1	75%
CC1C(=O)N2CCCc3cc(S(=O)(=O)NC(c4ccccc4)c4ccccc4)cc1c32 (stereo not drawn)	5%
CCOC(=O)c1nn(-c2ccc(C)cc2)c(=O)c2c(NC(=O)Cc3ccc(OC)cc3)scc12	0%
Cc1ccc([N+](=O)[O-])c(OCCSc2nnnn2-c2ccccc2)c1	-11%
Cc1nc(C)n(CC(O)COc2ccc3c(C)cc(=O)oc3c2)n1 (stereo not drawn)	-1%
CC1(C)COc2ccc(NC(=O)CCc3ccccc3)cc2NC1=O	-3%
C=CCOCC(O)Cn1c(N=Nc2c(O)[nH]c3ccccc23)nc2c1c(=O)n(C)c(=O)n2C (stereo not drawn)	-10%
COc1ccc(-n2ccnc(SCc3ccccc3Cl)c2=O)cc1	0%
Cc1ccccc1NC(=O)CSc1nnc2[nH]c(=O)ccn12	-5%
CCc1cccc(OCC(O)Cn2c(NN=Cc3cccnc3)nc3c2c(=O)[nH]c(=O)n3C)c1 (stereo not drawn)	-20%
COC(=O)c1ccc(NC(=O)CN2C(=O)C(=O)c3ccccc32)cc1	-4%
CCOc1ccc2c(c1)c1nnc(-c3ccc(OC)cc3)c-1cn2Cc1ccccc1F	4.7µg/mL*
O=C(CSc1ccc2nnc(CCNC(=O)c3ccc(F)cc3)n2n1)Nc1ccc(F)cc1F	-2%
O=C(CCN1C(=O)/C(=C\c2ccco2)SC1=S)Nc1ccc2ccccc2c1	-14%
CC1=C(C(=O)Nc2ccccc2)C(c2cccs2)C(C#N)=C(SCC(N)=O)N1 (stereo not drawn)	3%
O=C(Nc1nc(-c2ccncc2)cs1)c1ccc([N+](=O)[O-])s1	-6%
COc1ccc(-c2nnc3ccc(SC(C(C)=O)C(C)=O)nn23)cc1OC	-6%
O=C(COc1ccc(C2=NN(C(=O)c3cccs3)C(c3ccco3)C2)cc1)N1CCCC1 (stereo not drawn)	-1%
CCOc1ccccc1NC(=O)CSC1=NS(=O)(=O)c2ccccc2N1	-9%
CC(=O)Oc1ccc(/C=C(\C#N)c2nc(-c3ccc(Cl)cc3)cs2)cc1	0%
O=C(CSc1ncnc2c1cnn2-c1ccccc1)NCc1ccccc1Cl	-7%
NC(=O)c1ccsc1NC(=O)COc1ccc(Cl)cc1Cl	-2%
CCOC(=O)c1nn(-c2ccccc2)c(=O)c2c(NC(=O)c3cccc(C)c3)scc12	-4%
CN(C)S(=O)(=O)c1ccc(C(=O)Nc2nnc(-c3ccc(Cl)cc3Cl)s2)cc1	5%
CC(=O)c1ccc(NC(=O)c2c[nH]c(=O)n(-c3ccc(F)cc3)c2=O)cc1	1%
COc1ccc(NC(=O)c2oc3ccccc3c2NC(=O)CC(C)C)cc1	17%

Two entries drawn at random from those above:
SMILES	Mtb growth
CC(=O)Oc1ccc(/C=C(\C#N)c2nc(-c3ccc(Cl)cc3)cs2)cc1	0%
CCOC(=O)c1nn(-c2ccccc2)c(=O)c2c(NC(=O)c3cccc(C)c3)scc12	-4%

Later entries
SMILES	Mtb growth
O=C(O)c1ccccc1C(=O)n1c(-c2ccccc2)nc2ccccc21	-7%
Cc1ccc(Cn2cc(SCC(=O)Nc3cc(C)on3)c3ccccc32)cc1	1%
Cc1cccc(NC(=O)CSc2ccc3nnc(-c4ccccc4)n3n2)c1	1%
CCCc1nc(SCC(=O)Nc2cccc3ccccc23)c2c(=O)n(C)c(=O)n(C)c2n1	-16%
O=C(c1cccs1)N(CCCn1ccnc1)c1nc2ccc(F)cc2s1	3µg/mL*
Cc1ccc(-n2nnnc2-c2nc3ccccc3[nH]2)cc1	-9%
Cc1csc(NC(=O)CSc2ncnc3ccccc23)n1	9%
Cc1nc2ccccc2c(=O)n1-c1cccc(NC(=O)COc2ccccc2)c1	4%
COc1ccc(-c2nnc(Nc3nc4cc5c(cc4s3)OCO5)o2)c(OC)c1	67%
CCOc1ccc(-c2nnc3c4cc5c(cc4n(Cc4ccc(Cl)cc4)cc2-3)OCO5)cc1	5%
Cc1ccc(S(=O)(=O)Nc2ccc(S(=O)(=O)Nc3nc(C)cc(C)n3)cc2)cc1	4%
COc1ccc(Cl)cc1-n1ccn(CC(=O)Nc2ccc(C)cc2)c(=O)c1=O	-9%
CC(=O)c1cccc(NC(=O)C(=O)c2c[nH]c3ccccc23)c1	7%
Cn1c(SCc2ccc([N+](=O)[O-])cc2)nnc1-c1ccc2c(c1)OCO2	-11%
O=C(Nc1nnc(-c2cccnc2)o1)c1ccccc1F	-3%
CCc1ccccc1NC(=O)CSC1=C(C#N)C(c2ccc(C)cc2)C2=C(CCCC2=O)N1 (stereo not drawn)	6%
Cc1ccc(C)c(S(=O)(=O)/N=C2\C=C(SCC(=O)O)C(=O)c3ccccc32)c1	5%
O=C(Cc1ccc([N+](=O)[O-])cc1)Nc1c(C(=O)Nc2ccc3c(c2)OCO3)oc2ccccc12	-12%
COc1ccc2nc(Nc3nc(-c4cccs4)cs3)sc2c1	38µg/mL*
CCOC(=O)c1sc2ncn3c(-c4cccc(C)c4)nnc3c2c1C	-8%
CC(=O)N1CCc2c(sc(NC(=O)c3ccccc3)c2C(N)=O)C1	3%
CCN1CCN(c2nc(Nc3ccc(OC)cc3)c3nccnc3n2)CC1	-1%
O=C(NCc1cccs1)c1cnc2sccn2c1=O	-10%
CC1=C(C(=O)Nc2ccccc2C)C(c2ccc(C)cc2)NC(=O)N1 (stereo not drawn)	-8%
Cc1ccc2cc(CCNC(=O)c3c(-c4ccccc4Cl)noc3C)c(=O)[nH]c2c1	10%
Cc1ccc2cc(CCNC(=O)c3cccc(F)c3)c(=O)[nH]c2c1C	-10%
Cc1onc(-c2ccccc2Cl)c1C(=O)NCCc1cc2c(C)ccc(C)c2[nH]c1=O	-1%
COc1ccccc1/C=N\Nc1cn[nH]c(=O)c1Br	-16%
Cc1nc(Nc2ccccc2)c([N+](=O)[O-])c(Nc2ccccc2)n1	-4%
CCOc1ccc2c(c1)c(=O)c(C(=O)c1ccc(C)cc1)cn2Cc1ccccc1	30%
Cc1ccc(NCC(=O)Nc2ncc(Cc3ccc(Cl)c(Cl)c3)s2)c(C)c1	4%
CCOC(=O)N1CCN(C(c2ccc(Cl)cc2)c2c(O)cc(C)n(Cc3cccnc3)c2=O)CC1 (stereo not drawn)	2%
COc1cccc(C(c2sc3nc(C)nn3c2O)N2CCN(C(=O)c3ccco3)CC2)c1 (stereo not drawn)	-8%
C=CCOC(=O)C1=C(C)NC(SCC(=O)OCC)=C(C#N)C1c1cccs1 (stereo not drawn)	4.4µg/mL*
COc1ccc(C(C[N+](=O)[O-])n2nc(C)cc2C)cc1OC (stereo not drawn)	-3%
COc1ccc(NC(=O)c2oc3ccccc3c2NC(=O)c2c(F)cccc2Cl)c(OC)c1	16%
O=C(Nc1ccc(S(=O)(=O)Nc2nccs2)cc1)c1cc(Cl)ccc1Cl	-6%
CCCC(C)C(=O)Nc1nnc(Cc2ccc(OC)cc2)s1 (stereo not drawn)	8%
Cc1cccn2c(=O)c(C=O)c(Nc3ccc(Cl)cc3)nc12	8%
COc1ccc(NC(=O)c2cn(C)nc2OC)cc1OC	11%
COc1ccc(NC(=O)CSc2ccc3nnc(-c4ccncc4)n3n2)cc1	-10%
O=C(COc1ccc(Cl)cc1Cl)Nc1nc(-c2cc(Cl)sc2Cl)cs1	-6%
Cc1ccc2cc(CCNC(=O)CCC3CCCCC3)c(=O)[nH]c2c1	1%
CC(=O)Nc1cccc(NC(=O)C(=O)NCC2COC3(CCCCC3)O2)c1 (stereo not drawn)	-8%
COc1ccc(NC(=O)c2oc3ccccc3c2NC(=O)CC2CCCCC2)c(OC)c1	13%
Cc1ccnc(NS(=O)(=O)c2ccc(NC(=O)c3cc(=O)c4ccccc4o3)cc2)n1	2%
COc1ccc(/C=C/C(=O)O)cc1S(=O)(=O)Nc1cccnc1	1%
CCOc1ccc(-n2ccnc(NCCc3ccccc3)c2=O)cc1	52%
COc1ccccc1NC(=O)c1cnc2n(c1=O)CCS2	3%
CCOC(=O)c1sc(NC(=O)C(C)Sc2ncccn2)c(C(=O)OCC)c1C (stereo not drawn)	-13%

Five entries from above, bar-delimited:
molecule | Mtb growth
Cc1cccn2c(=O)c(C=O)c(Nc3ccc(Cl)cc3)nc12 | 8%
COc1ccc(NC(=O)c2cn(C)nc2OC)cc1OC | 11%
COc1ccc(NC(=O)CSc2ccc3nnc(-c4ccncc4)n3n2)cc1 | -10%
O=C(COc1ccc(Cl)cc1Cl)Nc1nc(-c2cc(Cl)sc2Cl)cs1 | -6%
Cc1ccc2cc(CCNC(=O)CCC3CCCCC3)c(=O)[nH]c2c1 | 1%

The list goes on.
SMILES	Mtb growth
Fc1ccc(Nc2ncnc3c2cnn3Cc2ccc(Cl)cc2)cc1	40%
Nc1nc(SCC(=O)OCc2ccccc2)[nH]c(=O)c1NC(=O)c1ccco1	-2%
Cc1ccc(C)c2[nH]c(=O)c(CCNC(=O)c3cccc4ccccc34)cc12	-3%
Cc1cccc(N2CC(C)Cn3c2nc2c3c(=O)[nH]c(=O)n2C)c1 (stereo not drawn)	-9%
Cc1ccc(Cl)cc1NC(=O)c1sc2nc3c(cc2c1N)C(=O)CCC3	-8%
COc1cccc(-c2nnc(Nc3nc4ccc(F)cc4s3)o2)c1	64%
COC(=O)c1ccc(/C=C(\C#N)c2nc(-c3ccccc3)cs2)cc1	0%
COc1ccc(Nc2nc(Nc3ccc(C)c(Cl)c3)nc3nccnc23)cc1	43%
O=C(Nc1nc2c(s1)CCc1ccccc1-2)c1ccc(-c2ccccc2)cc1	33%
O=C(Nc1c(C(=O)Nc2ccc(OC(F)(F)F)cc2)oc2ccccc12)c1cccc([N+](=O)[O-])c1	4%
Cc1ccc(C(=O)Nc2nc(-c3cc4ccccc4oc3=O)cs2)cc1C	6%
CSc1nc(N)c(C#N)c(-c2ccc(OCc3ccccc3)cc2)c1C#N	10%
O=C(NCC1COc2ccccc2O1)c1cc2c(=O)oc3ccccc3c2s1 (stereo not drawn)	-1%
O=C(CS(=O)(=O)c1cn(Cc2ccc(F)cc2)c2ccccc12)Nc1ccccc1	-1%
CCOC(=O)c1nn(-c2ccc(Cl)cc2)c(=O)c2c(NC(=O)c3ccc(C)cc3)scc12	-4%
COc1cccc(NC(=O)c2oc3ccccc3c2NC(=O)c2ccc(Br)o2)c1	6%
Cc1ccc(C)c2[nH]c(=O)c(CCNC(=O)COc3ccc4ccccc4c3)cc12	-4%
Nc1nc(SCC(=O)Nc2ccccc2F)[nH]c(=O)c1NC(=O)c1ccc(F)cc1	-8%
CCc1nnc(NC(=O)CSc2nc3c(c(=O)n2-c2ccc([N+](=O)[O-])cc2)SCC3)s1	2%
Cc1cc2c(cc1C)NC(CC(=O)NC(C)C)C(=O)N2 (stereo not drawn)	-1%
CCCn1c(=N)c(C(N)=S)cc2c(=O)n3cccc(C)c3nc21	34%
Cc1cc2cc(CCNC(=O)c3cc4ccccc4o3)c(=O)[nH]c2cc1C	7%
COc1ccc(-n2c(=O)[nH]c3c(C(N)=O)nc(-c4cccnc4)nc32)cc1OC	-14%
O=C(CN1C(=O)c2ccccc2S1(=O)=O)Nc1ccon1	-8%
Cc1ccc(S(=O)(=O)N2CCCc3ccc(NC(=O)c4ccccc4Cl)cc32)cc1	23%
Cc1c(Cc2ccc3c(c2)OCO3)sc(NC(=O)c2ccccc2)c1C(N)=O	1%
CCOC(=O)c1nn(-c2ccccc2)c(=O)c2c(NC(=O)Cc3cccc4ccccc34)scc12	-13%
COc1ccc(C(=O)Nc2c(N)nc(SCC(N)=O)[nH]c2=O)cc1	2%
Cc1cc(OC(=O)c2cc(Br)ccc2Cl)c([N+](=O)[O-])c(=O)[nH]1	77%
CCOc1ccccc1N1C(=O)CC(Sc2ncccc2C(=O)O)C1=O (stereo not drawn)	-13%

Rewritten in CSV form: 4 of the compounds above
Structure,Mtb growth
Cc1cc2cc(CCNC(=O)c3cc4ccccc4o3)c(=O)[nH]c2cc1C,7%
Cc1cc(OC(=O)c2cc(Br)ccc2Cl)c([N+](=O)[O-])c(=O)[nH]1,77%
COc1ccc(C(=O)Nc2c(N)nc(SCC(N)=O)[nH]c2=O)cc1,2%
COc1ccc(-n2c(=O)[nH]c3c(C(N)=O)nc(-c4cccnc4)nc32)cc1OC,-14%

More structures follow.
SMILES	Mtb growth
Cc1c(C)n2c(SCc3ccc([N+](=O)[O-])cc3)nnc2[nH]c1=O	3%
O=C1N=c2ccccc2=C1c1sc(=S)n(-c2cccc(Cl)c2)c1O	-15%
COc1ccc(NC(=O)c2oc3ccccc3c2NC(=O)CCCc2ccccc2)c(OC)c1	3%
CCCC(=O)Nc1c(C(=O)Nc2cccc(OC)c2)oc2ccccc12	-1%
O=c1[nH]c(=O)c2[nH]cnc2[nH]1	11%
CCOc1cccc2sc(N3CCCCC3)nc12	31%
Cc1nc2c(ccc3nc(NC(=O)CCOc4ccccc4)sc32)s1	50%
O=C(Nc1ccc(-c2nc3cccnc3s2)cc1)C1CCCO1 (stereo not drawn)	6%
COc1ccc(C(=O)Oc2cc(C)[nH]c(=O)c2[N+](=O)[O-])cc1	-9%
COc1ccc(C(=O)NNc2nc3cc(C)cc(C)c3s2)cc1	39µg/mL*
CCOc1ccc(Nc2c(CC)c(C)c(C#N)c3nc4ccccc4n23)cc1	1%
C=CCn1c(=NC(=O)c2cccc(OC)c2OC)sc2cc(S(C)(=O)=O)ccc21	-8%
C=CCSc1nc2c(c(=O)[nH]1)C(c1ccc(N(C)C)cc1)C1=C(CC(C)(C)CC1=O)N2 (stereo not drawn)	-6%
O=C(Nc1nc(-c2ccccc2)cs1)c1ccc2ncsc2c1	-2%
O=C(Nc1c2c(nn1-c1ccccc1)CS(=O)C2)C1(c2ccc(Cl)cc2)CCCC1 (stereo not drawn)	13%
CC(=O)c1ccc(NC(=O)CSc2ncnc3c2cnn3-c2ccccc2)cc1	-5%
Cc1ccc(NC(=O)Cn2ccn(-c3ccc4c(c3)OCCO4)c(=O)c2=O)cc1	-18%
Fc1cc(F)c2nc(N3CCCCC3)sc2c1	-1%

Bioassay records (PubChem)

A portion of the library; the hit share may differ from the screen's.
